Source: PubChem BioAssay (Broad Institute)
Vaccinia stage: blocks a specific stage of Vaccinia orthopoxvirus infection, primary screen, cell-based, single point. Vaccinia-infected cells, mCherry/Venus stage reporter fluorescence; active compounds read low; some inactives read as strong as hits. activity change (mCherry), % (no concentration beside the values). 0.01% of 89,000 active. AID 1053133, 2014;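 active = mCherry past -33% and 40 or more points under the early reporter, replicates agreeing; inconclusive = past -33% without that gap or agreement; tested in A549 cells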;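 note: scaled between vehicle wells and reference inhibitor wells; 23 nL library stock went into each well; one replicate is shown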
Vaccinia stage Venus: second read-out of Vaccinia stage, no call of its own (marks repeat the call); activity change (Venus), %; measured here: Venus reporter, other viral stage;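 negative = less Venus signal; first of two replicates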
Numbers without * were called inactive; u = inconclusive; x = not tested or not shown.

SMILES	Vaccinia stage	Vaccinia stage Venus
CO[C@@H]1CN(C)C(=O)c2cc(NC(=O)c3nc4ccccc4s3)ccc2OC[C@H](C)N(Cc2cccnc2)C[C@H]1C	u	x
C[C@@H]1CN([C@@H](C)CO)C(=O)CCCn2nncc2CO[C@H]1CN(C)S(=O)(=O)c1ccc(C#N)cc1	11	6
CCC(=O)N(C)C[C@H]1Oc2ncc(-c3ccccc3C)cc2C(=O)N([C@H](C)CO)C[C@@H]1C	5	4
C[C@@H]1CN([C@H](C)CO)C(=O)c2cc(-c3cccnc3)cnc2O[C@H]1CN(C)C(=O)C1CC1	13	0
O=C(C[C@H]1CC[C@H](NC(=O)CN2CCOCC2)[C@@H](CO)O1)NCc1cccc(F)c1	2	-1
O=C(O)[C@H]1[C@H](CO)[C@H]2Cn3c(ccc(C4=CCCCC4)c3=O)[C@H]2N1C(=O)Cc1cccnc1	13	8
COc1cccc(-c2cn(CC[C@H]3CC[C@@H](NS(=O)(=O)Cc4ccccc4)[C@@H](CO)O3)nn2)c1	0	8
CNC[C@H]1Oc2cc(-c3ccc(C#N)cc3)ccc2S(=O)(=O)N([C@H](C)CO)C[C@@H]1C	6	2
CC(C)NC(=O)NCC[C@@H]1CC[C@H](NS(=O)(=O)c2ccc(Oc3ccccc3)cc2)[C@H](CO)O1	-6	3
CC(C)NC(=O)N(C)C[C@H]1Oc2cc(-c3cccnc3)ccc2S(=O)(=O)N([C@H](C)CO)C[C@@H]1C	18	4
CO[C@@H]1CN(C)C(=O)c2cc(NC(=O)C3CC3)ccc2OC[C@H](C)N(Cc2ccc(F)cc2)C[C@@H]1C	-19	-10
COC(=O)C[C@H]1CC[C@@H]2[C@@H](COc3ccc(NC(=O)Nc4c(C)noc4C)cc3C(=O)N2C)O1	23	10
C[C@H](CO)N1C[C@H](C)[C@@H](CN(C)Cc2ccccc2)Oc2c(NS(=O)(=O)c3ccc(Cl)cc3)cccc2C1=O	3	5
C[C@@H]1CCCCO[C@H](CN(C)C(=O)NC2CCCCC2)[C@@H](C)CN([C@@H](C)CO)C(=O)c2cc(NC(=O)c3ccncc3)ccc2O1	19	8
C[C@H]1CCCCO[C@@H](CN(C)C(=O)NC2CCCCC2)[C@@H](C)CN([C@@H](C)CO)C(=O)c2cc(NC(=O)C3CCCCC3)ccc2O1	u	x
COc1ccc2c3c([nH]c2c1)[C@H](CO)N(C(=O)C1CCOCC1)CC31CN(Cc2cccc(F)c2)C1	-27	-46
CCC(=O)N1C[C@@H](C)[C@H](OC)CN(C)C(=O)c2cc(NC(=O)c3ccccc3)ccc2OC[C@H]1C	2	3
COc1ccccc1-c1ccc2c(c1)[C@H]1[C@H](CCN1S(=O)(=O)c1ccccc1F)[C@H](CO)N2	u	x
C[C@H](O)C#Cc1ccc([C@@H]2[C@@H](CO)N3CCCCN(S(=O)(=O)Cc4ccccc4)C[C@H]23)cc1	9	5
C[C@H]1CN([C@@H](C)CO)C(=O)CCCn2nncc2CO[C@@H]1CN(C)Cc1ccc2c(c1)OCCO2	0	-2
C[C@@H]1CN([C@@H](C)CO)C(=O)c2cc(NS(=O)(=O)c3cn(C)cn3)ccc2O[C@@H]1CN(C)S(=O)(=O)c1ccc(F)cc1	21	5
C[C@H](CO)N1C[C@H](C)[C@H](CN(C)CC2CCCCC2)OCCCC[C@H](C)Oc2ccc(NC(=O)c3ccncc3)cc2C1=O	-12	-28
CN1CCN(C(=O)C[C@H]2C=C[C@H](NC(=O)c3ccc4c(c3)OCO4)[C@H](CO)O2)CC1	10	9
C[C@H]1CN([C@@H](C)CO)C(=O)c2cc(NS(=O)(=O)c3ccc(F)cc3)ccc2O[C@H]1CN(C)C(=O)Nc1cccc2ccccc12	4	9
CC(C)CN1C(=O)[C@@]2(Cc3ccccc31)c1ccccc1C(=O)N(Cc1ccccc1Cl)[C@H]2c1ccc(CO)cc1	7	4
COCC#Cc1ccc([C@@H]2[C@H](CO)N3CCCCN(Cc4ccncc4)C[C@@H]23)cc1	22	7
COCC(=O)N(C)C[C@@H]1Oc2cc(C#CC(C)(C)O)ccc2S(=O)(=O)N([C@@H](C)CO)C[C@@H]1C	10	2
C[C@@H]1CCCCO[C@H](CN(C)C(=O)CCC(F)(F)F)[C@H](C)CN([C@@H](C)CO)C(=O)c2cc(NC(=O)Nc3ccc4c(c3)OCO4)ccc2O1	u	x
O=C(Cc1cccnc1)N[C@H]1CC[C@H](CCn2cc(Cc3ccccc3)nn2)O[C@@H]1CO	8	9
O=C(c1cccc(F)c1)N1CC(=O)N2[C@@H](CO)[C@H](c3ccc(C#Cc4ccc(F)cc4)cc3)[C@@H]2C1	-10	-16
C[C@@H]1CN([C@@H](C)CO)S(=O)(=O)c2ccc(C3=CCCC3)cc2O[C@@H]1CN(C)S(=O)(=O)c1ccc(F)cc1	-24	-17
NCC[C@H]1CC[C@@H](NC(=O)C2CCCC2)[C@H](CO)O1	1	6
O=C(C[C@H]1C[C@H]2c3cc(NC(=O)c4ccc5c(c4)OCO5)ccc3O[C@H]2[C@@H](CO)O1)NCc1ccc(Cl)cc1	2	2
CCS(=O)(=O)Nc1ccc2c(c1)C(=O)N(C)[C@@H]1CC[C@H](CC(=O)OC)O[C@@H]1CO2	-3	-6
CO[C@@H]1CN(C)C(=O)c2ccc(NC(=O)C3CCC3)cc2OC[C@H](C)N(Cc2ccncc2)C[C@H]1C	-2	7
O=C(c1ccccn1)N1CC2(C1)[C@H](c1ccccc1)[C@H](CO)N2C(=O)C1CCC1	5	8
C[C@H](CO)N1C[C@H](C)[C@@H](CN(C)C(=O)Nc2ccc3c(c2)OCO3)Oc2ccc(N(C)C)cc2C1=O	13	12
C[C@@H]1CCCCO[C@H](CN(C)S(=O)(=O)c2ccc(Cl)cc2)[C@@H](C)CN([C@H](C)CO)C(=O)c2cc(NC(=O)c3ccccc3)ccc2O1	-9	-8
C[C@@H]1CCCCO[C@H](CN(C)C(=O)Nc2ccccc2)[C@H](C)CN([C@H](C)CO)C(=O)c2cc(NC(=O)Cc3ccccc3)ccc2O1	-6	-8
CO[C@H]1CN(C)C(=O)c2cc(NC(=O)C3CC3)ccc2OC[C@@H](C)N(C(=O)NC(C)C)C[C@H]1C	7	14
C[C@H](CO)N1C[C@H](C)[C@H](CN(C)Cc2ccncc2)Oc2ccc(NC(=O)Nc3ccc4c(c3)OCO4)cc2C1=O	-25	-24
C[C@H](O)C#Cc1ccc([C@@H]2[C@H](CO)N3CCCCN(C(=O)Nc4ccccc4)C[C@@H]23)cc1	19	7
C[C@H](CO)N1C[C@H](C)[C@H](CN(C)Cc2ccccn2)Oc2cc(-c3cccnc3)ccc2S1(=O)=O	6	-4
O=S(=O)(c1ccc(F)cc1)N1CCCCN2[C@H](CO)[C@@H](c3ccc(-c4cncnc4)cc3)[C@H]2C1	-7	-10
COc1ccc(S(=O)(=O)N(C)C[C@@H]2OCCCC[C@H](C)Oc3ccc(NS(=O)(=O)c4ccc(Cl)cc4)cc3C(=O)N([C@@H](C)CO)C[C@H]2C)cc1	-7	10

Laid out differently: results already given
SMILES | Vaccinia stage | Vaccinia stage Venus
C[C@@H]1CN([C@@H](C)CO)S(=O)(=O)c2ccc(C3=CCCC3)cc2O[C@@H]1CN(C)S(=O)(=O)c1ccc(F)cc1 | -24 | -17
NCC[C@H]1CC[C@@H](NC(=O)C2CCCC2)[C@H](CO)O1 | 1 | 6
O=C(C[C@H]1C[C@H]2c3cc(NC(=O)c4ccc5c(c4)OCO5)ccc3O[C@H]2[C@@H](CO)O1)NCc1ccc(Cl)cc1 | 2 | 2
CCS(=O)(=O)Nc1ccc2c(c1)C(=O)N(C)[C@@H]1CC[C@H](CC(=O)OC)O[C@@H]1CO2 | -3 | -6
CO[C@@H]1CN(C)C(=O)c2ccc(NC(=O)C3CCC3)cc2OC[C@H](C)N(Cc2ccncc2)C[C@H]1C | -2 | 7
O=C(c1ccccn1)N1CC2(C1)[C@H](c1ccccc1)[C@H](CO)N2C(=O)C1CCC1 | 5 | 8

Complete entries, looked up by structure. Values in the order: Vaccinia stage, Vaccinia stage Venus
C[C@H](CO)N1C[C@H](C)[C@@H](CN(C)C(=O)Nc2ccc3c(c2)OCO3)Oc2ccc(N(C)C)cc2C1=O reads 13, 12
C[C@H](CO)N1C[C@H](C)[C@H](CN(C)Cc2ccccn2)Oc2cc(-c3cccnc3)ccc2S1(=O)=O reads 6, -4
CCS(=O)(=O)Nc1ccc2c(c1)C(=O)N(C)[C@@H]1CC[C@H](CC(=O)OC)O[C@@H]1CO2 reads -3, -6
CO[C@@H]1CN(C)C(=O)c2ccc(NC(=O)C3CCC3)cc2OC[C@H](C)N(Cc2ccncc2)C[C@H]1C reads -2, 7

More compounds.
SMILES	Vaccinia stage	Vaccinia stage Venus
O=C(C[C@H]1CC[C@@H](NS(=O)(=O)c2ccccc2F)[C@@H](CO)O1)NCCCN1CCOCC1	-3	0
C[C@H]1CCCCO[C@@H](CN(C)C)[C@@H](C)CN([C@@H](C)CO)C(=O)c2cc(NC(=O)CCCN(C)C)ccc2O1	-2	-2
COc1ccc(NC(=O)N(C)C[C@@H]2Oc3ccc(NC(=O)Nc4ccc(C(F)(F)F)cc4)cc3CC(=O)N([C@H](C)CO)C[C@@H]2C)cc1	-9	4
C[C@@H]1CN([C@H](C)CO)C(=O)Cc2cc(N(C)C)ccc2O[C@H]1CN(C)C(=O)Nc1cccc2ccccc12	-7	4
O=C(Nc1ccc(F)cc1)N[C@@H]1CC[C@H](CCNS(=O)(=O)c2ccccc2F)O[C@@H]1CO	7	4
CC(C)NC(=O)N(C)C[C@@H]1OCCCC[C@@H](C)Oc2ccc(NS(=O)(=O)c3cccs3)cc2C(=O)N([C@@H](C)CO)C[C@H]1C	18	13
Cc1ccc(S(=O)(=O)N(C)C[C@H]2Oc3c(NC(=O)NC4CCCCC4)cccc3C(=O)N([C@H](C)CO)C[C@H]2C)cc1	-19	-10
CCC(=O)N1C[C@@H](C)[C@@H](OC)CN(C)C(=O)c2ccc(NC(=O)COC)cc2OC[C@H]1C	7	6
C[C@H]1CCCCO[C@@H](CN(C)Cc2ccc3c(c2)OCO3)[C@@H](C)CN([C@@H](C)CO)C(=O)c2cc(NC(=O)Nc3ccc(F)cc3)ccc2O1	u	x
O=C(Nc1ccc(F)cc1)N1C[C@@H]2[C@H](c3ccccc31)[C@H](CO)N2Cc1cocn1	11	13
C[C@H](CO)N1C[C@H](C)[C@H](CN(C)C(=O)Nc2ccc3c(c2)OCO3)Oc2ccc(NC(=O)Nc3ccc4c(c3)OCO4)cc2C1=O	19	7
CCCNC(=O)N1[C@@H](C#N)[C@@H](c2ccc(C#Cc3ccc(F)cc3)cc2)[C@@H]1CO	u	x
C[C@@H]1CN([C@H](C)CO)C(=O)c2cccc(NC(=O)C3CCCCC3)c2O[C@@H]1CN(C)S(=O)(=O)c1ccc(Cl)cc1	1	1
Cc1ccc(S(=O)(=O)N(C)C[C@@H]2OCCCC[C@H](C)Oc3ccc(NC(=O)Cc4ccccc4)cc3C(=O)N([C@H](C)CO)C[C@H]2C)cc1	-17	-15
C[C@H](CO)N1C[C@H](C)[C@H](CN(C)CC2CCOCC2)Oc2ncc(Br)cc2C1=O	12	7
O=C(C[C@@H]1CC[C@@H]2[C@H](COC[C@@H](O)CN2S(=O)(=O)c2cccc(Cl)c2)O1)N1CCOCC1	21	10
COc1ccc(CN(C)C[C@@H]2Oc3c(NC(=O)C4CC4)cccc3C(=O)N([C@H](C)CO)C[C@H]2C)cc1	0	7
CCCNC(=O)[C@@H]1[C@@H](CO)[C@@H]2Cn3c(ccc(C4=CCCC4)c3=O)[C@H]1N2C(=O)CC1CC1	-3	6
COc1ccc(-c2ccc([C@H]3[C@H](C#N)N[C@H]3CO)cc2)cc1	26	23
Cc1noc(C)c1S(=O)(=O)Nc1ccc2c(c1)C(=O)N([C@@H](C)CO)C[C@@H](C)[C@H](CN(C)C(=O)Nc1ccc(F)cc1)OCCCC[C@H](C)O2	5	-2
C[C@H](CO)N1C[C@H](C)[C@@H](CN(C)S(=O)(=O)c2ccccc2)Oc2ccc(NC(=O)Nc3ccc4c(c3)OCO4)cc2C1=O	4	8
COc1ccc(NC(=O)N(C)C[C@H]2OCCCC[C@H](C)Oc3ccc(NS(C)(=O)=O)cc3C(=O)N([C@@H](C)CO)C[C@@H]2C)cc1	20	9
C[C@@H]1CN([C@@H](C)CO)C(=O)c2cc(NC(=O)Nc3ccc(C(F)(F)F)cc3)ccc2O[C@@H]1CN(C)S(=O)(=O)c1ccc(Cl)cc1	-16	-5
CC(C)N(C[C@@H]1[C@@H](c2ccccc2)[C@H](CO)N1S(C)(=O)=O)C(=O)CN(C)C	-2	-8
Cc1ccc(S(=O)(=O)N[C@@H]2C=C[C@@H](CC(=O)NC3CCCCC3)O[C@H]2CO)cc1	-6	-3
CO[C@@H]1CN(C)C(=O)c2ccc(NS(C)(=O)=O)cc2OC[C@@H](C)N(Cc2ccccc2)C[C@@H]1C	2	7
Cn1cnc(CCNC(=O)C[C@@H]2CC[C@H]3[C@@H](COC[C@@H](O)CN3C(=O)Nc3ccc(C(F)(F)F)cc3)O2)c1	-7	4
C[C@H](CO)N1C[C@H](C)[C@@H](CN(C)C(=O)Nc2ccc(F)cc2)Oc2ccc(NC(=O)Cc3cn(C)c4ccccc34)cc2CC1=O	-9	-4
O=C(N[C@@H]1CC[C@@H](CCn2cc(C3(O)CCCC3)nn2)O[C@@H]1CO)C1CC1	-2	9
COc1ccccc1-c1cn(CC[C@@H]2CC[C@@H](NS(=O)(=O)c3ccccc3C)[C@H](CO)O2)nn1	-20	-12
CC(C)NC(=O)N(C)C[C@@H]1Oc2ncc(C#Cc3ccc(F)cc3)cc2C(=O)N([C@H](C)CO)C[C@H]1C	4	11
COc1ccc(S(=O)(=O)Nc2ccc3c(c2)C(=O)N([C@@H](C)CO)C[C@@H](C)[C@H](CN(C)C(=O)NC(C)C)OCCCC[C@@H](C)O3)cc1	18	8
COc1ccc(S(=O)(=O)Nc2ccc3c(c2)C(=O)N([C@@H](C)CO)C[C@H](C)[C@H](CN(C)C(=O)C2CCCCC2)OCCCC[C@H](C)O3)cc1	u	x

These rows are one share of the data, so the mix of outcomes need not match the whole.
